PABP FP inh = PABP poly(A) RNA binding inhibitors, primary screen, biochemical, fluorescence polarization, uHTS | 1% of 290,000 active | AID 2014, 2009 | inhibition, % at 35 µM | Polyadenylate-binding protein 1 (Homo sapiens), P11940;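 active = 50% or more with normal probe brightness, or confirmed in later tests; inconclusive = above 50% with abnormal brightness, or retests that disagree; inactive = below 50% or failed in later tests; about a fifth of its hits are not listed in these tables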;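 note: calls also rest on retests at 20 µM and on dose response follow-up; controls were probe without protein and protein plus probe with vehicle; some compounds called inactive have numbers as strong as hits; many hits fall short of the cut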
Target sequence (P11940 whole entry, looked up): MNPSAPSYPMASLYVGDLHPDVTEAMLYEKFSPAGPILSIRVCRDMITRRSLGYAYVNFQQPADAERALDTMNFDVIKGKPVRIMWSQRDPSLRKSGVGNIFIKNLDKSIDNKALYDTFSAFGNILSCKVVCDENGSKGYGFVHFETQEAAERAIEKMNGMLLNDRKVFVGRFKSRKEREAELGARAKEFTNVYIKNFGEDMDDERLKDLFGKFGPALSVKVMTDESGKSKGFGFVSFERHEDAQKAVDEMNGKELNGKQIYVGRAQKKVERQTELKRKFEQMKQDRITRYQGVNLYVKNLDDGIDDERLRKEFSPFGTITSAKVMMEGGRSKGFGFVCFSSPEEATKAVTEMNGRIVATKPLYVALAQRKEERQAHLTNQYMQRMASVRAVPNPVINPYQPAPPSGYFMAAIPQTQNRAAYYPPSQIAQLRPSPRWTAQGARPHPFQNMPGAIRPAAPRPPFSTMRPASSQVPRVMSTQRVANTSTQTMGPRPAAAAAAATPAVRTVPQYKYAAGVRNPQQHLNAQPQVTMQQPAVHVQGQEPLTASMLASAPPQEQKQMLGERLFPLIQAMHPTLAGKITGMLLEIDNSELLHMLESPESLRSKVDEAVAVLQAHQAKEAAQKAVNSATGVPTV
Rce1 inh = yeast Rce1p protease inhibitors, primary screen, biochemical, fluorescence, cell-free homogeneous; yeast membranes, quenched prenylated peptide cleavage fluorescence; CAAX prenyl protease 2 (Saccharomyces cerevisiae (strain ATCC 204508 / S288c)), Q03530; 0.27% of 290,000 active; calls only;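 active = fall in fluorescence gain of 50% or more versus controls, with final raw signal at or below 3038400; inconclusive = same 50% fall but final raw signal above 3038400; inactive = fall in fluorescence gain under 50%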;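 note: plate controls were neutral control wells for no effect and wells lacking membranes for full effect; tested at 10 µM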
Target sequence (Q03530 whole entry, looked up): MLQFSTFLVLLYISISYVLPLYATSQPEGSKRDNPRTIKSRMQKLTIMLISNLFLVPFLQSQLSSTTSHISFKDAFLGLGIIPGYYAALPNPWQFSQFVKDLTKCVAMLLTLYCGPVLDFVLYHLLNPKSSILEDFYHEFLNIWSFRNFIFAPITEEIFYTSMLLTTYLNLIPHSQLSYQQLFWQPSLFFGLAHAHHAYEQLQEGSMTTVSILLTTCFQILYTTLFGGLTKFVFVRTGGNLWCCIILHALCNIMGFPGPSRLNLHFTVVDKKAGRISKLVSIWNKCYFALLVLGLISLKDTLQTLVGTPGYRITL
eIF4H FP inh = human eIF4H binding inhibitors, primary screen, translation initiation inhibitor project, biochemical, uHTS, fluorescence polarization | inhibition, % at 35 µM | eIF4H fluorescence polarization binding assay | AID 2012, 2009 | 0.94% of 290,000 active;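 active = 50% or more with normal probe brightness, or confirmed in later tests; inconclusive = above 50% with abnormal brightness, or retests that disagree; inactive = below 50% or failed in later tests; about a fifth of its hits are not listed in these tables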;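 note: calls also rest on retests at 20 µM and on dose response follow-up; 0% = protein and probe with vehicle and 100% = probe without protein; strong numbers were not always called active; many hits fall short of the cut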
MT1-MMP act inh = blockers of MT1-MMP proenzyme processing, primary screen, HT1080 RFP-PRO-GFP cells, GFP/RFP fluorescence; Matrix metalloproteinase-14 (Homo sapiens), P50281; GFP/RFP ratio fluorescence, overnight; percent of plate control window, DMSO zero; GFP/RFP ratio change, % at 20 µM; 0.061% of 360,000 active;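 active = GFP/RFP ratio change of at least 30% with cell ATP level not reduced by more than half and red fluorescence within 50% of control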; note: strong numbers were not always called active
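Assay system: RFP-PRO-GFP reporter HT1080 cells; read-out basis: GFP/RFP fluorescence ratio; benchmarks: DMSO wells and RFP-L50D-GFP cells; doses: 20 µM single dose, 1% DMSO; schedule: overnight cell settling, then overnight compound exposure, 37 °C, 5% CO2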
Yeast UUG start = modulators of yeast start codon fidelity, primary screen, whole organism, S. cerevisiae, single point, plate reader | S. cerevisiae UUG-firefly luciferase reporter, luminescence/redox ratio | activity score, % at 18.7 µM | 0.13% of 350,000 active | AID 602363, 2012;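 active = replicate mean at a twofold rise or more, about +100% in these data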;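 note: firefly luciferase made from a UUG start codon reports start codon fidelity; reporter light over untreated wells divided by growth signal over untreated wells; some hits fall short of that in this replicate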
HIV Env fusion = inhibitors of HIV-1 Env-driven cell-cell fusion, primary screen, HeLa-JRFL effector, CEM21 target cells, luciferase; 1.1% of 360,000 active; inhibition, % at 12.3 µM;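 active = mean replicate inhibition score of at least 50 and every replicate individually at or above 50; inconclusive = only one of the two criteria met; inactive = mean below 50 and not all replicates reaching 50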;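 note: 0% = plate neutral controls and 100% = maraviroc near 300 nM; one replicate is shown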
CSC inhib = cancer stem cell viability inhibitors, primary screen, luminescence | cancer stem cell-like cells viability | 1.1% of 300,000 active | inhibition, % at 7.5 µM | AID 2717, 2010;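 active = mean at 75% or more and at least half the replicates too; inconclusive = mean and replicates disagree; tested in HMLE shEcad cells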;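 note: 0% = median of negative and 100% = median of positive control wells; the first replicate is given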
eIF4H FP inh retest = further read-out of eIF4H FP inh, marked with its call; inhibition, %; compound at 20 µM; confirmation average;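 mean of two retest wells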
PABP FP inh retest = second read-out of PABP FP inh, no call of its own (marks repeat the call); inhibition, %; compound at 20 µM; confirmation repeats;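 mean of two retest wells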
MT1-MMP act inh RFP = recorded beside MT1-MMP act inh, whose call it bears; RFP signal change, %; measured here: RFP expression control read;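 0 = vehicle wells; hits needed this value within 50% of zero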
Active calls of the source: *; i = inactive; ? = inconclusive; . = not tested or not shown.

SMILES	PABP FP inh	Rce1 inh	eIF4H FP inh	MT1-MMP act inh	MT1-MMP act inh RFP	Yeast UUG start	HIV Env fusion	CSC inhib	others
CCN(CC)C(=O)c1ccc(Nc2nnc(-c3ccc(O)cc3)c3ccccc23)cc1	-1	i	2	7	1	3	-13	-3
CCOc1ccc(N2CC(C(=O)Nc3ccc(S(=O)(=O)N4CCCCC4)cc3)CC2=O)cc1 (stereo not drawn)	.	i	.	3	-2	-1	67*	-4
O=C(CN(Cc1ccco1)C(=O)c1ccccc1)Nc1ccc(Cl)c(Cl)c1	-11	i	0	2	5	-6	-23	7
O=C1CCC(=O)N1CC(=O)N1c2ccccc2Sc2ccccc21	2	i	4	4	-1	16	1	-6
Cn1nccc1C(=O)N/N=C/c1c(O)ccc2ccccc12	0	i	-4	-14	-5	-12	66*	63
Cc1ccc(S(=O)(=O)NCCC(=O)N2CCC(C)CC2)cc1	.	.	.	1	5	-11	.	-15
COc1ccc(S(=O)(=O)N2CCCCC2)cc1NC(=O)Cc1c[nH]c2ccccc12	7	i	-5	-3	-10	.	34	.
Cc1cc(OCc2cc(C(=O)NCC3(C)COC3)no2)cc(C)c1Cl	-5	i	-9	6	-3	11	46	5
O=[N+]([O-])c1cc(C(F)(F)F)ccc1N1CCCC(O)C1 (stereo not drawn)	9	i	5	-2	1	.	-40	-10
CC1(C)CC(=O)C(C=Nc2cc(C(=O)c3ccccc3)ccc2N)=C(O)C1	5	i	54	-75	13	.	-10	-4	eIF4H FP inh retest=-20;PABP FP inh retest=3
Cc1nn(-c2ccccc2)c(C)c1/C=C/C(=O)OCC(=O)Nc1ncc(Cl)cc1Cl	10	i	16	0	3	.	4	11
O=C(COc1ccc(Cl)cc1Cl)NCCCn1ccnc1	4	i	7	0	-2	-24	-92	1
CCS(=O)(=O)N1CCN(C(=O)c2ccco2)CC1	-4	i	-8	2	1	-4	.	1
CC(C)(C)NC(=O)C(c1ccc(F)cc1)N(Cc1cccs1)C(=O)c1ccc(CN2CCOCC2)o1 (stereo not drawn)	-12	i	-1	-5	-3	.	13	-8
CC(OC(=O)C1=COCCO1)C(=O)c1ccc(Br)cc1 (stereo not drawn)	.	.	.	-4	3	-8	24	-12
COc1cccc(NC(=O)CC2C(=O)NC3CCCCC3N2C(=O)c2ccc(F)cc2)c1 (stereo not drawn)	-1	i	3	-1	2	-2	-22	-2
COc1cccc(CNc2cnc3ccccc3c2)c1O	-7	i	-4	2	-21	-18	.	7
O=C(N/N=C/c1ccc(-c2ccc(Cl)c(C(=O)O)c2)o1)c1cc2c(ccc3ccccc32)o1	76*	i	76*	-3	2	.	15	2
O=C(Nc1ccc2c(c1)OCCO2)c1ccccc1	-1	i	-13	3	1	-54	.	9
Cc1[nH]nc2c1C(c1cc(Br)cs1)C(C#N)=C(N)O2 (stereo not drawn)	-4	i	4	-7	-12	.	15	23
CCOC(=O)N/N=C/c1ccc(F)cc1F	-4	i	-5	2	3	.	-25	-1
NC(=O)CSc1nnc(-c2ccccc2)c(-c2ccccc2)n1	8	i	-8	-3	-3	-8	-17	15
CCC(C)c1ccc(NC(=S)NC(C)C2CCCO2)cc1 (stereo not drawn)	-2	i	-2	2	0	.	4	6
O=C(c1ccccc1)c1nc[nH]c1C(=O)Nc1ccccc1	-8	i	3	2	-4	-4	.	18
Cc1cc(C)cc(Oc2ccc(S(=O)(=O)N3CCN(C)CC3)cn2)c1	.	i	.	-2	1	-20	.	-15
COc1cc2ccnc(Cc3cccc(OC)c3OC)c2cc1OC	3	i	-2	7	-21	.	23	-4
CCOC(=O)c1c(C)[nH]c(C(=O)COC(=O)c2ccccn2)c1C	3	i	-5	0	12	-28	-45	3
CCN(CC)S(=O)(=O)c1cccc(-c2n[nH]c(=S)n2/N=C/c2ccc(OC(F)F)cc2)c1	4	i	16	11	4	.	-7	14
COc1ccc(N2CCN(C(=O)CN(C)S(=O)(=O)c3cccs3)CC2)cc1	6	.	-8	-3	-4	2	5	-3
CCOc1ccc(CCNC(=O)c2cc3c(s2)CS(=O)(=O)C3)cc1OCC	-18	i	-6	-2	1	-8	10	-2
COc1ccccc1N1CCN(C(CNC(=O)c2ccc3c(c2)OCO3)c2cccnc2)CC1 (stereo not drawn)	-14	i	-10	4	-13	8	.	14
CC1Cc2ccccc2N1C(=O)CSc1nnc(-c2ccc(S(=O)(=O)N3CCCC3)cc2)n1C (stereo not drawn)	-5	i	1	-1	-9	6	7	-8
COc1cccc(C(=O)O/N=C(\C)c2cnccn2)c1	-7	i	-3	3	2	.	1	-5
CCCOC(=O)C1C2C=C[C@]3(CN(CCc4ccccc4)C(=O)[C@H]13)O2 (stereo partly drawn)	-5	i	1	-3	3	0	.	-2
COc1cc(CCC(=O)Nc2ncc(C)s2)cc(OC)c1OC	15	i	-5	2	5	-9	-3	-9
O=C(Nc1ccc(C(=O)N2CCCCC2)cc1)c1cccs1	5	i	-2	-1	2	-14	-16	12
O=C1c2ccncc2C(=O)N1Cc1cccc(Cl)c1	3	i	-2	-1	1	-1	.	-11
COc1ccc(OCC(=O)Nc2ccc3c(c2)nc2n3CCSC2)cc1	-1	i	0	-1	-1	.	-17	-1
Cc1cccc2cc(COC(=O)C(C)(C)C)c(=O)[nH]c12	-2	i	-1	-6	-10	-7	.	4
CCC(CC)COC(=O)C1=C(C)NC(=O)NC1c1ccc([N+](=O)[O-])cc1 (stereo not drawn)	-1	i	11	2	-7	0	30	-26
O=C(Nc1ccon1)c1sc2ccccc2c1Cl	-11	i	-11	-8	1	-11	-167	-8
COC(=O)C1CCN(S(=O)(=O)CCNC(=O)c2cccc(OC)c2)CC1	.	i	.	-2	7	-7	0	-7
Cc1cc2c(cc1S(=O)(=O)NCc1ccc(Cl)cc1)OCC(=O)N2	0	i	-10	-2	-2	-5	-7	-3
CCOc1ccc(NC(=O)CSc2nnc(Cn3cnc([N+](=O)[O-])n3)n2CC)cc1	6	i	-8	2	4	.	5	-1
O=C(O)/C=C\c1ccccc1Oc1cccc(Cl)c1	38	i	0	2	3	.	12	9
CN(Cc1ccccn1)C(=O)CC1C(=O)NCCN1Cc1cccc(Oc2ccccc2)c1 (stereo not drawn)	6	.	6	7	7	.	2	-5
Nc1ncc(-n2cncn2)c(-c2ccccc2)n1	-3	i	-7	7	7	.	20	-1
CCOc1ccc(NC(=S)NCCCn2ccnc2)cc1	-14	i	-2	-1	7	.	.	-7
O=C(NCc1ccccc1Cl)c1cnc2ccccc2n1	-3	i	8	-6	-2	0	-10	-5
O=C(O)CCN1C(=O)/C(=C\c2cccc(OCC(=O)Nc3ccc(Cl)cc3)c2)SC1=S	21	i	15	8	-3	-5	-52	21
CC(C)OC(=O)c1nnn(-c2nonc2N)c1CN1CCc2ccccc2C1	3	.	0	-11	2	0	.	.
COc1cc2cnc(-c3ccccc3)c(C(=O)c3ccc(F)cc3)c2cc1OC	.	.	.	-2	-4	0	-12	-12
CCOC(=O)C1=CCN(S(=O)(=O)c2ccc(C)cc2)C1c1ccc(C)cc1 (stereo not drawn)	.	.	.	3	0	-6	-17	.
NS(=O)(=O)c1ccc(-n2cccc2C=O)cc1	-5	i	2	3	4	.	-17	0
CC(O)CN(CC(C)O)c1ccc2c(c1)Cc1cc([N+](=O)[O-])ccc1-2 (stereo not drawn)	.	.	.	-31	18	4	-6	.
O=C(CN1C(=O)C2C3C=CC(C3)C2C1=O)Nc1cccc2c1CCCC2 (stereo not drawn)	4	i	-7	4	3	-15	.	-3
CCOC(=O)c1cccc(S(=O)(=O)N2CCOCC2)c1	-7	i	-4	0	1	1	8	-16
Cc1ccc(OCCOCCN2CCCCC2)c([N+](=O)[O-])c1	17	i	13	4	5	.	1	3
O=C1NN(c2ccc(F)cc2)C(=O)/C1=C\c1cnn(-c2ccccc2)c1	-1	i	5	.	.	.	-4	-3
CCOC(=O)C1C(c2cccs2)NC(=O)NC1(O)C(F)(F)F (stereo not drawn)	-3	i	-1	-2	5	.	.	-7

Structures from the list above that contain bromine (2):
SMILES	PABP FP inh	Rce1 inh	eIF4H FP inh	MT1-MMP act inh	MT1-MMP act inh RFP	Yeast UUG start	HIV Env fusion	CSC inhib	others
CC(OC(=O)C1=COCCO1)C(=O)c1ccc(Br)cc1 (stereo not drawn)	.	.	.	-4	3	-8	24	-12
Cc1[nH]nc2c1C(c1cc(Br)cs1)C(C#N)=C(N)O2 (stereo not drawn)	-4	i	4	-7	-12	.	15	23

Of the compounds above, these have a CF3 group.
SMILES	PABP FP inh	Rce1 inh	eIF4H FP inh	MT1-MMP act inh	MT1-MMP act inh RFP	Yeast UUG start	HIV Env fusion	CSC inhib	others
O=[N+]([O-])c1cc(C(F)(F)F)ccc1N1CCCC(O)C1 (stereo not drawn)	9	i	5	-2	1	.	-40	-10
CCOC(=O)C1C(c2cccs2)NC(=O)NC1(O)C(F)(F)F (stereo not drawn)	-3	i	-1	-2	5	.	.	-7

Continued.
SMILES	PABP FP inh	Rce1 inh	eIF4H FP inh	MT1-MMP act inh	MT1-MMP act inh RFP	Yeast UUG start	HIV Env fusion	CSC inhib	others
CC(C)C(=O)Nc1nnc(Sc2ccc(N(C)C)cc2)s1	-5	i	-14	1	-1	.	-73	7
CCCCn1c(N)c(N(CC(C)C)C(=O)CC2CCCC2)c(=O)[nH]c1=O	.	i	.	-1	0	15	-2	.
Cc1ccccc1CNS(=O)(=O)c1ccc2c(c1)C(C)(C)C(=O)N2C	13	i	-1	1	3	.	-10	11
COc1cccc(NC(=O)CSCC(=O)Nc2ccccc2)c1	-11	i	2	2	-3	-6	.	-4
Cc1nn(C(C)C(=O)NC2C(=O)N3C(C(=O)O)=C(CSc4nnnn4C)CSC23)cc1Cl (stereo not drawn)	-1	i	34	-3	6	-13	7	-4
CCCn1nc(NC(=O)c2ccco2)c2cc3ccc(C)cc3nc21	-7	i	-6	1	-6	-7	.	-8
Cc1cccn2c(=O)c(C(=O)NCCCN3CCCCC3C)c(O)nc12 (stereo not drawn)	3	i	15	-3	-3	3	-1	-18
COc1ccccc1NC(=O)CSc1nnc(Cc2cccn2C)n1CCc1ccccc1	0	i	2	-9	-5	-3	18	-2
NC(=O)SC/C(=N\S(=O)(=O)c1ccccc1)Nc1ccccc1	10	.	-7	2	1	-11	.	-11
CCOc1ccc(NC(=O)CN(C)c2ccc(S(=O)(=O)N(C(C)C)C(C)C)cn2)cc1OCC	-15	i	1	-12	-9	.	.	6
CCc1ccc(NC(=O)CCc2ccc(CC)o2)cc1	1	i	16	-1	1	-15	14	.
C[C@H]1C=CC(=O)O[C@H]1c1ccccc1	.	i	.	6	-9	3	-28	-11
Cc1ccc(NC(=O)/C(=C/c2cccc([N+](=O)[O-])c2)NC(=O)C2CCCCC2)c(C)c1	-4	i	-3	-7	-5	-14	.	2
CC1CC(=O)NC(=O)N1Cc1ccccc1 (stereo not drawn)	.	.	.	-1	4	-8	-87	.
COc1ccc(NC(=O)c2cccc(-c3ccc(O)cc3)c2)cn1	?	.	?	-43	-3	-12	-21	86*
O=C(O)CCCC(=O)OCCc1cc2ccccc2c(=O)o1	.	.	.	0	0	-12	-11	-13

Bioassay records deposited in PubChem by several laboratories.

Not a hit list, and some 3% of all compounds hit somewhere here.
